Bioassay records from PubChem.
RGS16-Gao – modulates binding between human RGS16 and Galphao. binding response (% of control), % at 10 µM. hit rate 0.38% among 220,000. bead-based flow cytometry RGS16-Galphao binding, fluorescence; actives lie on both sides;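 active means below 25% or above 175%, edge rows of some plates excepted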;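 further: Galphao activated by GDP with aluminum fluoride before binding; 100% = wells without compound and 0% = beads without RGS; some results beyond the cut were filed as inactive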
Target sequence (O15492 whole entry, looked up): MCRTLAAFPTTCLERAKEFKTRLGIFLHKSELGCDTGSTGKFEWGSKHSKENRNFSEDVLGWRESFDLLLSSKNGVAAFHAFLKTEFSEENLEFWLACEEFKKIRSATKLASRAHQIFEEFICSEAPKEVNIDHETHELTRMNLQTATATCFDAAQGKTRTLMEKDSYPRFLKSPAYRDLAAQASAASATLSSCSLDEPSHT
Target sequence (P09471 whole entry, looked up): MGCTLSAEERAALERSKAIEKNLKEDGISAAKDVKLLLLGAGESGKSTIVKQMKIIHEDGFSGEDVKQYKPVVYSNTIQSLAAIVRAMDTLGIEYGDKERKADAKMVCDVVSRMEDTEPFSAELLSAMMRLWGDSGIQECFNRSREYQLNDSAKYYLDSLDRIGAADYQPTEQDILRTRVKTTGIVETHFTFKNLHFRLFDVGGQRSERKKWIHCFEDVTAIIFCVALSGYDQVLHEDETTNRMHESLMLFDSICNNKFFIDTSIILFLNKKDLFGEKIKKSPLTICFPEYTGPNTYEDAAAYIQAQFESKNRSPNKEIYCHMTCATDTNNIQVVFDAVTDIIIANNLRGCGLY
HSV augment – increases HSV replication in cells | HSV replication augmentation in cells, fold increase | hit rate 0.005% among 220,000 | maximum fold increase | AID 1956;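 active means peak rise of 1.5-fold or more in the series; inconclusive means self-fluorescent or not available for retest; tested in PC3 cells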;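 further: first round at 10 µM; read as green reporter fluorescence; hits show the peak of a series up to 25 µM; 1 = signal of infected wells without compound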
PKD1 inh – PKD1 (human) kinase inhibition; Q15139; PKD1 kinase fluorescence polarization assay; inhibition, %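 (about 10 µM by stock and volumes)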; hit rate 0.056% among 200,000;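 active means inhibition of 50% or more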;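 further: controls were vehicle for no effect and a reference inhibitor for full effect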
Insulin prom inh – TRM-6 insulin promoter activity inhibition; TRM-6 cells (human fetal islet line), insulin promoter-eGFP reporter, imaging; reporter expression induced with tamoxifen; inhibition, % at 2 µM; hit rate 0.9% among 130,000;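 active means inhibition above the mean plus 3 SD, with well images judged a real hit on visual review, cut at about 60% in these data, passing the limit was not always enough; inconclusive means inhibition over the cutoff but images rejected on review; inactive means inhibition not above the cutoff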
GALR2 ag – activates the human galanin receptor 2 | GALR2-expressing cells, agonist activation read-out | hit rate 0.48% among 140,000 | AID 803 | O43603 | activation, %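 (tested at 5 µM)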;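 active means above mean plus 3 SD of all compounds, about 5% in these data, not always enough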;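 further: 0% = vehicle buffer wells and 100% = reference agonist at full effect; tested in CHO reporter cells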
Target sequence (O43603 whole entry, looked up): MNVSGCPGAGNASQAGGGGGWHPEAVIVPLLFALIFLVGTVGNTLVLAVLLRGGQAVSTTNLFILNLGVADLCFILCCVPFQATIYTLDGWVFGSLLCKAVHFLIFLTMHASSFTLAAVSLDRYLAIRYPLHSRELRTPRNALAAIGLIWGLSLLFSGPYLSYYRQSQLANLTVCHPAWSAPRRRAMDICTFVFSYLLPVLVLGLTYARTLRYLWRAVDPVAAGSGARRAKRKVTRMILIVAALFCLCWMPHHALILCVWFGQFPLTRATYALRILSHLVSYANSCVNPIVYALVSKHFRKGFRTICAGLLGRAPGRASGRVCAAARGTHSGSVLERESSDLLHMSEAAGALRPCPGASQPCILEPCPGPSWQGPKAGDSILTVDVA
Insulin prom inh cell count – second read-out of Insulin prom inh, no call of its own (marks repeat the call); normalized cell count, %; measured here: cell count, toxicity; reference of the scale not given here;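 cells exposed to compound for 48 h; stained nuclei by imaging scaled within each plate; lower means fewer cells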
HSV augment primary fold – second read-out of HSV augment, no call of its own (marks repeat the call); fold increase; compound at 10 µM; measured here: primary screen fold increase 10 uM; tested in PC3 cells;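 GFP signal in the first replicate; 1 = infected wells without compound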
The depositor's hits bear a star; i = inactive; u = inconclusive; x = not tested or not shown; & = joins results of further samples. Only part of the results is shown. The share of hits here may be higher or lower than overall.

Preview, two compounds:
structure	RGS16-Gao	HSV augment	HSV augment primary fold	PKD1 inh	Insulin prom inh	Insulin prom inh cell count	GALR2 ag
O=C1CN=C(c2ccc[nH]2)c2cc(Cl)ccc2N1	94	i	0.89	x	x	x	x
Cc1ccc(C(C)C)c(OCC#CCN2CCCC2)c1	101	i	1.1	-4	x	x	x

This part in full (from the top)
structure	RGS16-Gao	HSV augment	HSV augment primary fold	PKD1 inh	Insulin prom inh	Insulin prom inh cell count	GALR2 ag
O=C1CN=C(c2ccc[nH]2)c2cc(Cl)ccc2N1	94	i	0.89	x	x	x	x
Cc1ccc(C(C)C)c(OCC#CCN2CCCC2)c1	101	i	1.1	-4	x	x	x
CCCCn1c(O)c(C(C)=NCCCn2ccnc2)c(=O)[nH]c1=O	94	u	x	-7	-24	101	-0.8
CCOC(=O)C1=C(N)Oc2cc(C)oc(=O)c2C12C(=O)N1c3c(cc(OC)cc32)C(C)=CC1(C)C (centres undefined)	100	x	x	-15	-30	90	-1.7
O=c1[nH]c(=S)[nH]c(O)c1CN1CCCCC1	102	i	0.89	-4	-15	137	-0.9
c1ccc2c(N3CCNCC3)nsc2c1	98	i	0.9	0	x	x	x
CC(c1ccccc1)n1cncc1C(=O)N1CCCC1=O (centres undefined)	79	i	0.96	-5	x	x	-0.2
Cc1ccsc1C(=O)C1CCCN(Cc2c(C)nn(C(C)C)c2C)C1 (centres undefined)	113	i	1	4	x	x	x
c1ccc2c(NC3=NCCS3)cccc2c1	82	i	0.93	-3	-36	51	-0.5
CC(C)C(=O)N1CCN(CCN=Cc2c(O)n(C)c(=O)n(C)c2=O)CC1	98	i	0.97	1	x	x	-0.6
CN(C)CC#CCC(O)(c1ccccc1)C1CCCC1 (centres undefined)	100	i	0.78	-6	21	91	-0.2
CC(=O)C1(c2ccccc2)CCNCC1	90	i	0.97	2	18	116	-1.4
O=c1c2cc([N+](=O)[O-])ccc2nc(CN2CCOCC2)n1-c1ccccc1F	110	i	0.99	6	x	x	-2.9
COc1ccc2nc(NC3=NCCN3)sc2c1	113	i	1	2	-11	132	-0.9
CC(=O)c1cn(Cc2ccccc2C#N)c2ccccc12	68	i	1	-1	x	x	x
Cc1ccccc1-n1c(O)c(/C=N/c2nccs2)c(=O)[nH]c1=O	104&99	i	1.2&1	-3&6	15&15	96&120	-0.6
O=c1[nH]c(=O)n(CCC2=CCCCC2)c(O)c1C=Nc1cccc(F)c1	97	i	0.84	-5	-8	175	-0.8
CCCCSP1(=S)NCCCO1 (centres undefined)	101	i	1	1	x	x	-1.4
CN1C(=O)NC(=O)/C(=C/c2ccc([N+](=O)[O-])s2)C1=O	77	i	0.96	x	x	x	x
CC(C)c1cccc(C(C)C)c1OCCn1ccnc1	98	i	1	4	-29	130	-1.0
O=C(N/N=C/c1c(O)n(CCc2ccc(F)cc2)c(=O)[nH]c1=O)c1ccccc1	101	i	1	x	x	x	x
O=C(C(=O)N1CCOCC1)c1cn(Cc2ccc(F)cc2)c2ccccc12	102	i	1.1	x	x	x	x
O=c1[nH]c(=O)n(-c2ccccc2)c(O)c1N=Nc1ccc(Br)cc1	93	i	0.75	-3	x	x	x
Cc1ccc(OCC(=O)N2CCN(CC3CC4C=CC3C4)CC2)cc1 (centres undefined)	105	i	0.82	-14	-64	136	-0.9
O=C(CCn1nc(-c2ccc(Cl)cc2)ccc1=O)N1CCC2(CC1)OCCO2	99	i	1.1	1	0	129	x
Cc1ccc(C2CC(=O)C(C=NCCN3CCN(C(=O)Cc4ccccc4)CC3)=C(O)C2)cc1 (centres undefined)	109	i	0.89	0	-112	163	-0.8
Cc1c(N=Cc2c(O)n(Cc3ccco3)c(=O)[nH]c2=O)c(=O)n(-c2ccccc2)n1C	103	i	1	-9	52	101	-3.0
CC(=O)N(C1=NCCCS1)c1ccc(Cl)cc1	101	i	1	-8	20	124	x
O=c1[nH]c(=S)[nH]c(O)c1N=Nc1ccc(S(=O)(=O)N2CCOCC2)cc1	-19*	i	0.86	x	x	x	x
Cc1cccc(NC(=O)C(C)N2CC=C(c3ccccc3)CC2)c1 (centres undefined)	111	i	1.1	-3	x	x	x
O=C(c1cn(Cc2ccccc2)c2ccccc12)N1CCCCC1	100	i	0.97	-1	x	x	x
CCOc1ccccc1-n1c(O)c(C=NCCCn2ccnc2)c(=O)[nH]c1=O	93	i	0.99	x	x	x	x
CN(C)[C@@H]1C(=O)C(C(N)=O)=C(O)[C@@]2(O)C(=O)C3=C(O)c4c(O)cccc4[C@@](C)(O)[C@H]3[C@H](O)[C@@H]12	90	u	x	17	-33	106	-1.2
O=c1[nH]c(=O)n(C2CCCCC2)c(O)c1C1NCCc2ccccc21 (centres undefined)	100	i	0.96	-18	8	95	-1.7
C=C(CC1CC(O)[C@]2(C)OC3CC4OC5C[C@]6(C)O[C@]7(C)CCC8OC9C[C@]%10(C)OC%11C(C)=CC(=O)OC%11CC%10OC9C[C@@H](C)C8OC7CC6O[C@]5(C)C/C=C\C4OC3CC2O1)C(=O)O (some centres undefined)	101	i	0.73	12	x	x	x
O=[N+]([O-])c1cccc(CN2CCN(Cc3ccc(Br)cc3)CC2)c1	83	i	1	-6	x	x	x
CC(=O)Nc1ccccc1C(=O)OCc1ccc(F)cc1	101	i	0.96	-1	x	x	x
CCOC(C(=O)OCCC[N+](C)(CC)CC)(c1ccccc1)c1ccccc1	91	i	0.85	-7	13	116	-0.1
O=C(CN1CCOCC1)c1cccc2ccccc12	100	i	0.99	-1	0	169	-2.6
O=C(CNS(=O)(=O)c1ccc(Br)s1)N1CCC2(CC1)OCCO2	101	i	0.92	0	-6	109	-2.4
OC(C#CCN1CCOCC1)(c1ccccc1)C1CCCC1 (centres undefined)	105	i	1	-5	-49	121	-1.7
COc1ccc(OC)c(C(O)C(C)N)c1 (centres undefined)	104	x	x	0	48	157	-0.8
C=CCN1C(=O)NC(=O)/C(=C/c2cccn2C)C1=O	96	i	0.95	-1	-48	118	-0.7
O=C(O)CCn1cc(C=C2C(=O)NC(=O)NC2=O)c(-c2cc3ccccc3oc2=O)n1	102	i	1.1	-9	x	x	x
CC(C)(C)c1cc([N+](=O)[O-])cc(C(C)(C)C)c1O	107	x	x	-5	-62	102	x
Nc1ccccc1C(=O)c1ccccc1	222	i	1.1	9	x	x	-2.6
CCCc1c(C)nc(SCC(=O)C(C)(C)C)nc1OC(=O)N(C)C	100	i	1	x	x	x	x
O=C(Cc1ccccc1)N1CCN(Cc2cccc(Br)c2)CC1	100	i	0.99	x	x	x	x
O=C(C(Cc1ccccc1)NS(=O)(=O)c1cccc2nsnc12)N1CCC2(CC1)OCCO2 (centres undefined)	103	i	0.92	3	x	x	-3.4
CN1CCC(N(C)c2ncnc3ccc(Br)cc23)CC1	101	i	0.84	-1	x	x	-1.2
COCc1cc(C2SCC(=O)Nc3c2c(=O)[nH]n3C(C)C)ccc1OC (centres undefined)	104	i	0.92	-11	34	33	-0.9
Cc1c(C(=O)N2CCC3(CC2)OCCO3)oc2ccc(S(=O)(=O)N3CCCCC3)cc12	105	i	0.95	-10	39	106	-1.8
C=CCn1c(O)c(C=Nc2ccc(OC)cc2C)c(=O)[nH]c1=O	95	i	0.9	-7	29	169	-3.5
NP(=O)(OCC(F)(F)F)Oc1cccc2ccccc12 (centres undefined)	73	i	1	-7	19	83	-0.6
O=c1c2ccccc2nc(-c2ccccc2)n1-c1cccc(O)c1	110	i	1	0	x	x	x
C[C@H]1CC[C@@]2(C)[C@@H](CC[C@@H]3[C@@H]2CC[C@]2(C)[C@@H](O)CC[C@@H]32)C1	99	i	0.91	x	x	x	x
COc1cccc(-n2c(C)nc3ccccc3c2=O)c1	100	i	1.2	-4	-19	153	-2.3
O=C(COc1ccc(Cl)cc1)N1CCN(C/C=C/c2ccccc2)CC1	103	i	1	10	6	138	-1.8
Cc1cc(=O)[nH]c(SCc2nc3ccccc3c(=O)n2-c2ccccc2C)n1	104	i	0.95	7	x	x	x
CCCC(C)(COC(N)=O)COC(=O)NC(C)C (centres undefined)	99	i	0.94	-7	-41	128	-1.2

The listing continues:
structure	RGS16-Gao	HSV augment	HSV augment primary fold	PKD1 inh	Insulin prom inh	Insulin prom inh cell count	GALR2 ag
N#CC(C#N)=NNc1ccc(-n2ccc(C(F)(F)F)n2)cc1	104	i	0.66	x	x	x	x
CC(C)Oc1cc(-n2c(=S)[nH]c3ccccc3c2=O)c(Cl)cc1Cl	77	i	1.1	-3	10	126	-1.1
COc1cc(OC)cc(C(=O)Nc2ccc(Br)cc2C(=O)c2ccccc2)c1	114	i	1.1	-5	x	x	-0.3
O=[N+]([O-])c1ccc(N2CCNCC2)cc1NC1CC1	93	x	x	-2	-23	103	0.8
c1ccc(-c2cc(-c3ccccc3)[n+](-c3ccccc3)c(-c3ccccc3)c2)cc1	98	i	0.57	x	x	x	x
O=[N+]([O-])c1ccc(NCCO)c2ncccc12	105	i	0.82	5	20	171	-0.8
N#CC(C#N)=Cc1ccc(-c2ccccc2F)o1	100	i	1	-1	-86	36	-0.1
O=c1c2ccccc2nc(CNCc2ccco2)n1-c1ccc(F)cc1	84	i	1	-10	x	x	-1.3
CN1CCc2c(c(N3CCCCC3)nc3n[nH]c(N)c23)C1	104	i	1	2	-228	48	-1.2
O=C(Cn1c(=O)c(C(F)(F)F)nc2ccccc21)N1CCC2(CC1)OCCO2	101	i	0.93	-15	x	x	-3.3
O=c1[nH]c(O)c(N=Nc2ccc(SC(F)F)cc2)c(=O)[nH]1	96	i	1	x	x	x	x
CCOc1ccc(C2CC(c3c(O)n(C)c(=O)n(C)c3=O)=NN2)cc1 (centres undefined)	90	i	0.99	x	x	x	x
C#CCOc1cc(C2C3=C(COC3=O)Nc3cc4c(cc32)OCO4)ccc1OC (centres undefined)	100	i	1.1	2	x	x	x
O=C1CN=C(c2ccc(F)cc2)c2oc3ccccc3c2N1	98	i	1.1	3	-13	115	x
CC(C)N1CCN(Cc2cccc3c2OCO3)CC1CCO (centres undefined)	100	i	1.1	-1	x	x	x
O=C1C2CCN(CC2)C1Cc1ccccc1O (centres undefined)	105	i	1	1	-12	123	-1.9
CC1=CC(=C2C(=O)NC(=S)NC2=O)C=C(C(F)(F)F)N1C	99	i	0.99	0	-11	98	-0.3
CCc1ccc(CN2CCN(Cc3cc(Br)ccc3O)CC2)cc1	103	i	0.95	-3	-43	66	x
CNC(=O)ON(C(=O)NC)C1N(C)C(=S)SC1(C)C (centres undefined)	105	i	0.78	10	x	x	-2.5
CCOc1cccc(=NC2CCCCC2)c2c(C)[nH]c(C)c12	101	i	0.83	x	x	x	x
CCC(=O)OC1(c2ccccc2)CCN(C)CC1C (centres undefined)	101	i	0.85	-2	50	51	x
COc1ccc(N2C(=O)/C(=C/c3cc(C)n(-c4ccc(C)cn4)c3C)C(=O)NC2=S)c(OC)c1	93	i	1	-7	x	x	x
Cc1ccc(C2N(c3cc(C)on3)C(=O)C3CCCN32)cc1 (centres undefined)	106	i	0.91	13	x	x	-1.8
O=[N+]([O-])c1cc(F)c(N2CCCCCC2)cc1N1CCNCC1	98	i	0.61	-5	x	x	x
CC(=O)OC1(c2ccccc2)CC(C(C)(C)C)CN(C(C)(C)C)C1 (centres undefined)	108	i	0.85	-1	15	81	0.2
Clc1cccc(N2CCNCC2)n1	98	i	1.1	-10	9	146	x
O=C(CN1CCCCC1)c1ccccc1Cl	107	i	0.9	-6	4	155	-1.8
Cc1ccc(NP(=O)(Oc2ccccc2F)Oc2ccccc2F)cc1	98	i	0.99	13	x	x	-0.7
CCCCn1c(O)c(C(C)=NCc2ccco2)c(=O)[nH]c1=O	100	i	1.1	x	x	x	x

3 structures out of the list, sorted by length of the SMILES, largest number first.
structure	RGS16-Gao	HSV augment	HSV augment primary fold	PKD1 inh	Insulin prom inh	Insulin prom inh cell count	GALR2 ag
CC(=O)OC1(c2ccccc2)CC(C(C)(C)C)CN(C(C)(C)C)C1 (centres undefined)	108	i	0.85	-1	15	81	0.2
O=[N+]([O-])c1cc(F)c(N2CCCCCC2)cc1N1CCNCC1	98	i	0.61	-5	x	x	x
Clc1cccc(N2CCNCC2)n1	98	i	1.1	-10	9	146	x
